Source: PubChem (ICCB-Longwood Screening Facility, Harvard Medical School)
Sa growth 42C = blocks Staphylococcus aureus growth | S. aureus RN4220 growth, OD600, 20 h, 42 °C; hits give low values | relative growth, % (no concentration beside the values) | hit rate 0.53% among 170,000 | AID 720641;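 active = growth at 42 °C up to 50% and 20 or more points under that at 30 °C, or under 10% at both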;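 also: 300 nL library stock went into each well; scaled to the means of positive and negative controls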
HCMV UL50-53 inh = inhibitors of HCMV UL50-UL53 nuclear egress complex interaction | HTRF UL50-UL53 interaction, normalized percent inhibition | inhibition, % (test concentration not listed) | hit rate 0.15% among 190,000;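 active = both replicates at 50% or more, plus weaker picks with an unusually low signal ratio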;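 also: stock transfer was 100 nL into about 20 µL; 0% = negative control wells and 100% = wells with untagged competitor protein; inactives centre near -12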
GIV-Gai inh = GIV-Galpha-i interaction inhibition; Galpha-i3/FITC-GIV peptide fluorescence polarization, 90 min; hits give low values; scaled: aluminum fluoride 0%, vehicle 100%; percent of control (FP), % (no concentration beside the values); hit rate 0.42% among 210,000; AID 1224905;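 active = replicate mean at 85% of control or lower, very high polarization wells dropped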;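 also: wells of about 15 µL received 100 nL stock; the first replicate is given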
Target sequence (P08753 whole entry, looked up): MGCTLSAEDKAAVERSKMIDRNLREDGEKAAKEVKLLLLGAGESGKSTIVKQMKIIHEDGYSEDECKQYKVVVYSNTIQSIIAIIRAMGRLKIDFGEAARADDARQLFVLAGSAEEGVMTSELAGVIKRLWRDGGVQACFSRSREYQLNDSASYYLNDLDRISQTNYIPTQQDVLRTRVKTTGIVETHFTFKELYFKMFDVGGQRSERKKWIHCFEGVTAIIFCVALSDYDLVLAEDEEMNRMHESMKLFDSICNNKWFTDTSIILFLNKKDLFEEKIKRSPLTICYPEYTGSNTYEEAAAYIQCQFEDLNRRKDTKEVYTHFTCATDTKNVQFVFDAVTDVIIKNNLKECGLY
Sa growth 42C second temp = second read-out of Sa growth 42C, no call of its own (marks repeat the call); relative growth, %; measured here: growth at 30 °C;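 optical density after 20 h as mean of two plates; 100% = untreated growth and lower means inhibition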
* = called active by the depositor; . = not tested or not shown; & = joins results of further samples. Compounds were not picked by outcome; 0.8% or so of the library scored in one or more.

SMILES	Sa growth 42C	Sa growth 42C second temp	HCMV UL50-53 inh	GIV-Gai inh
CC(CNC(=O)CCc1nnc2ccc(NCCCN3CCCC3=O)nn12)c1ccccc1 (stereo not drawn)	99	100	5	108
CCC1CCCCN1C(=O)c1nn(-c2ccc(C)cc2)c(=O)c2c1c1ccccc1n2C (stereo not drawn)	106	92	-6	103
Cc1[nH]c(=O)[nH]c(=O)c1S(=O)(=O)NCCOC12CC3CC(CC(C3)C1)C2	85	99	1	.
CCOc1ccc(NC2SC(=O)N(Cc3ccccc3)C2=O)cc1 (stereo not drawn)	94	93	-39	110
O=c1[nH]c(SCc2ccc(F)cc2)nc2c1CCCC2	127	97	5	103
COC(=O)/C=C1\S/C(=N\c2ccccn2)N(c2ccc(C)c(C)c2)C1=O	115	85	.	99
CC(=O)N1CC(NC(Cc2cnc[nH]2)C(=O)O)C(c2ccc(N(C)C)cc2)=N1 (stereo not drawn)	93	86	-34	.
CCCn1c2c(c(SCc3ccc(C)cc3)nc1=O)CCC2	.	.	-4	99
Cc1ccc(Cl)cc1N1CCN(CCCNC(=O)c2cc3c(C)nc4ccccc4c3o2)CC1	85	83	.	101
CN(Cc1nc2ccccc2c(=O)[nH]1)C(=O)CCC(=O)N1CCOCC1	62	82	3	.
CCN1C(=O)C2C(c3ccccc3C)NC(Cc3ccc(O)cc3)(C(=O)OC)C2C1=O (stereo not drawn)	124	86	-15	104
Cn1c(=O)c2c(nc(CN3CCN(c4cccc(Cl)c4)CC3)n2CCCO)n(C)c1=O	94	93	-9	103
O=c1c(-c2ccccc2)coc2cc(O)ccc12	103	84	-22	104
Cc1ccc(CNC(=O)c2cc3cc(C)ccc3n2C)cc1	101	89	-42	98
CC(C)c1ccc(NC(=O)COc2ccc3cc4c(=O)n(-c5cccc(Cl)c5)nc-4oc3c2)cc1	.	.	-14	104
Cc1cc(C)cc(NC(=O)N2CCC3(CC2)OCCO3)c1	86	89	-14	100
CCOC(=O)c1ccccc1NC(=O)COC(=O)CC(C)(C)CC1=NS(=O)(=O)c2ccccc2N1	115	80	.	110
COC(=O)c1ccc(CSc2nc(-c3ccco3)cc(C(F)(F)F)n2)o1	103	88	-35	107
COc1ccc(CNC(=O)c2cc(-c3cccs3)nc3ccccc23)c(OC)c1	83	92	0	108
CCOc1ccccc1NC(=O)[C@@H]1CCCN1S(=O)(=O)c1ccccc1C(F)(F)F	97	86	-8	.
O=S(=O)(NCc1csc(-c2cccnc2)n1)c1ccc(Cl)s1	92	77	-46	122
CCN1CCN(Cc2ccc(-c3ccccc3)cc2)CC1	107	99	-2	98
COc1ccc(C2CC(=O)C3=C(C2)Nc2onc(C)c2C3c2ccccc2OC)cc1OC (stereo not drawn)	.	.	-13	105
Cc1cccc(NC(=O)c2ccc(S(=O)(=O)N(C)C)cc2)n1	104	97	-11	.
CCOCCOC(=O)c1ccc2c(c1)N(Cc1ccccn1)C(=O)c1ccccc1S2	.	.	20	113

(next part)
SMILES	Sa growth 42C	Sa growth 42C second temp	HCMV UL50-53 inh	GIV-Gai inh
CCOC(=O)c1cc2n(n1)CC(C)(C(=O)NC1CCCCC1)N(c1ccc(NC(C)=O)cc1)C2=O (stereo not drawn)	.	.	-3	95
O=C(O)COc1cccc(/C=C2/SC(=Nc3ccccc3)NC2=O)c1	.	.	-13	111
Cc1cccc(N=c2scc(-c3ccco3)n2/N=C/c2c[nH]c3ccccc23)c1C	78	88	-11	.
O=C(NC(=S)Nc1ccc(N2CCCCC2)cc1)c1ccccc1	96	78	.	115
CCCc1nnc2n1NC(c1ccc(C)cc1)C(C(=O)Nc1ccc(C)cc1C)S2 (stereo not drawn)	.	.	5	105
C/C(=C\C#N)Nc1cccc(C(F)(F)F)c1	90	90	-2	.
Cc1c(C(=O)N2CCCC2)oc2c1-c1nn(CC(=O)NCc3ccc(OC(C)C)cc3)cc1CC2	93	89	.	106
COc1cccc(C2C(C(=O)Nc3ccc(C)cc3C)=C(C)Nc3c(C(=O)Nc4cccc(C)c4)cnn32)c1OC (stereo not drawn)	89	89	.	104
CCN1C(=O)c2c(C(=O)NC3CC3)ncn2CC1(C)C(=O)NCCCOC(C)C (stereo not drawn)	.	.	-30	106
COc1ccc(C2NNC(=S)S2)cc1 (stereo not drawn)	85	91	-9	.
CC1(C)CC(=O)c2cc(C(=O)Nc3ccccc3)c(=O)[nH]c2C1	.	.	-20	103
CCN(CCCN)Cc1ccccc1	84	96	-1	97
CC(Sc1ncn(-c2ccccc2)n1)C(=O)Nc1nccs1 (stereo not drawn)	92	77	-8	97
O=C1COc2ccc(-c3csc(-n4nccc4C(F)(F)F)n3)cc2N1	84	86	-13	.
O=C(O)C1C2C=CC(CC2)C1C(=O)NCCc1ccccc1 (stereo not drawn)	104	104	22	101
Cc1ccc(-n2c(O)c(C=NCC3CCCO3)c3ccccc3c2=O)cc1C (stereo not drawn)	71	42	-33	.
O=C(Cn1nnc(-c2ccc(F)cc2)n1)NC(=O)NC1CCCCC1	87	91	8	.
CCOC(=O)c1[nH]c(C)c(C)c1O	99	92	-8	100
CCCCn1c(SCC(=O)c2ccccc2)nc2c(sc3ccccc32)c1=O	77	88	.	102
COc1ccc(C(=O)NCc2ccoc2C(=O)O)cc1	94	87	-13	.
O=C1CCC(=O)N1c1ccccc1N1CCOCC1	106	90	2	106
CCOc1ccc(C2c3c(oc4ccccc4c3=O)C(=O)N2c2ccccn2)cc1 (stereo not drawn)	95	84	-4	103
CCc1ccc(NC(=O)C2CCN(c3ncnc4c3sc3ncccc34)CC2)cc1	.	.	-34	99
CC(C)(C)C(=O)Nc1ccc(Cl)cc1-c1noc(C(C)(C)C)n1	105	84	3	103
CCn1cc(C(=O)NCCCN2CCCC(C)C2)c(=O)c2cc(S(=O)(=O)N(C)C3CCCCC3)ccc21 (stereo not drawn)	101	87	-31	99

No new results follow: entries from further up.
SMILES	Sa growth 42C	Sa growth 42C second temp	HCMV UL50-53 inh	GIV-Gai inh
C/C(=C\C#N)Nc1cccc(C(F)(F)F)c1	90	90	-2	.
Cc1c(C(=O)N2CCCC2)oc2c1-c1nn(CC(=O)NCc3ccc(OC(C)C)cc3)cc1CC2	93	89	.	106
COc1cccc(C2C(C(=O)Nc3ccc(C)cc3C)=C(C)Nc3c(C(=O)Nc4cccc(C)c4)cnn32)c1OC (stereo not drawn)	89	89	.	104
CCN1C(=O)c2c(C(=O)NC3CC3)ncn2CC1(C)C(=O)NCCCOC(C)C (stereo not drawn)	.	.	-30	106
COc1ccc(C2NNC(=S)S2)cc1 (stereo not drawn)	85	91	-9	.
CC1(C)CC(=O)c2cc(C(=O)Nc3ccccc3)c(=O)[nH]c2C1	.	.	-20	103
CCN(CCCN)Cc1ccccc1	84	96	-1	97
CC(Sc1ncn(-c2ccccc2)n1)C(=O)Nc1nccs1 (stereo not drawn)	92	77	-8	97
O=C1COc2ccc(-c3csc(-n4nccc4C(F)(F)F)n3)cc2N1	84	86	-13	.
O=C(O)C1C2C=CC(CC2)C1C(=O)NCCc1ccccc1 (stereo not drawn)	104	104	22	101
Cc1ccc(-n2c(O)c(C=NCC3CCCO3)c3ccccc3c2=O)cc1C (stereo not drawn)	71	42	-33	.
O=C(Cn1nnc(-c2ccc(F)cc2)n1)NC(=O)NC1CCCCC1	87	91	8	.
CCOC(=O)c1[nH]c(C)c(C)c1O	99	92	-8	100
CCCCn1c(SCC(=O)c2ccccc2)nc2c(sc3ccccc32)c1=O	77	88	.	102
COc1ccc(C(=O)NCc2ccoc2C(=O)O)cc1	94	87	-13	.
O=C1CCC(=O)N1c1ccccc1N1CCOCC1	106	90	2	106
CCOc1ccc(C2c3c(oc4ccccc4c3=O)C(=O)N2c2ccccn2)cc1 (stereo not drawn)	95	84	-4	103
CCc1ccc(NC(=O)C2CCN(c3ncnc4c3sc3ncccc34)CC2)cc1	.	.	-34	99
CC(C)(C)C(=O)Nc1ccc(Cl)cc1-c1noc(C(C)(C)C)n1	105	84	3	103
CCn1cc(C(=O)NCCCN2CCCC(C)C2)c(=O)c2cc(S(=O)(=O)N(C)C3CCCCC3)ccc21 (stereo not drawn)	101	87	-31	99

(further entries)
SMILES	Sa growth 42C	Sa growth 42C second temp	HCMV UL50-53 inh	GIV-Gai inh
CCOc1ccc(CCNC(=O)C2CCCN(C(=O)c3cc4sccc4n3CC)C2)cc1OCC (stereo not drawn)	88	85	-23	101
CCCn1c(N)c(C(=O)CN2CC(C)OC(C)C2)c(=O)[nH]c1=O (stereo not drawn)	90	98	-3	.
O=C(Nc1ccccc1)C1COc2ccccc2O1 (stereo not drawn)	.	.	5	100
COc1ccc(OC)c(N(C)S(=O)(=O)c2ccc3c(c2)N(C(C)=O)CCO3)c1	89	92	-32	102
O=C(CN1CCSc2ccccc21)NCc1ccccc1F	120	91	.	103
O=C(NC1CC1)C1C2C=CC3(O2)C1C(=O)N(Cc1ccccc1)C3C(=O)NC1CCCC1 (stereo not drawn)	117	95	-26	99
Cc1ccc2nc(CSc3nnc(NC(=O)C(C)C)s3)cc(=O)n2c1	87	88	.	99&104
O=C(CSc1nnc2scc(-c3ccccc3)n12)c1ccc2c(c1)OCCO2	113	88	8	105
Cc1nn(-c2ccccc2)c2c1C1(C(=O)Nc3ccc(Br)cc31)C(C#N)=C(N)O2 (stereo not drawn)	.	.	0	104
CCCn1c(C)cc(C(=O)COC(=O)c2nn(CCC)c(=O)c3ccccc23)c1C	102	101	11	.
O=C(Nc1ccc2c(c1)OCCO2)Nc1nnc(N2CCCC2)s1	98	88	-22	102
O=C1C=CC(=O)C(c2ccc(Br)cc2)=C1	72	17	.	106
Cc1ccc(NC(=O)CSc2nc(C)c(Cc3ccccc3)c(=O)[nH]2)cc1C	91	70	1	110
O=C(NCc1ccc(Cl)cc1)C1c2ccccc2Oc2ccccc21	104	85	.	107
CC(C)c1ccc(-c2noc(SCC(=O)N3CCN(c4ccccc4)CC3)n2)cc1	.	.	-8	108
COc1cc(C(=O)NCC(c2ccc(Cl)cc2)N2CCOCC2)cc(OC)c1OC (stereo not drawn)	102	77	-30	102
CCCCc1nc2ccccc2n2c(-c3ccc(C)cc3)c3c(=O)n(C)c(=O)n(C)c3c12	99	88	-34	103
O=C(Nc1ccc(F)cc1F)c1ccc2c(=O)n3c(nc2c1)CCCCC3	107	86	-6	104
CCOC(=O)c1c(S(=O)(=O)N2CCN(c3cccc(C(F)(F)F)c3)CC2)c(C)n(C)c1C	106	108	.	105
CN(C(=O)CCc1nc(-c2ccccc2F)no1)c1ccc(Cl)cc1	109	93	0	103
COC(=O)C1(C#N)C(c2ccccc2)C1(C(=O)OC)C(=O)OC (stereo not drawn)	111	87	-14	100
CCOc1ccc(/C=C2/C(=O)NC(=S)N(c3ccc(Br)cc3)C2=O)c(OCC)c1	.	.	12	118
Fc1cc(Br)ccc1Nc1ncnc2c(-c3ccccc3)noc12	.	.	-11	103
CCCc1cc(=O)[nH]c(-c2cccc(C)c2)n1	106	71	-4	94
CCOc1ccccc1C1CC(=O)Oc2c1c(=O)n(C)c1ccccc21 (stereo not drawn)	110	92	10	104

Going on with the list:
SMILES	Sa growth 42C	Sa growth 42C second temp	HCMV UL50-53 inh	GIV-Gai inh
COc1cc(NC(=O)Cc2ccc(F)cc2)cc(S(=O)(=O)c2ccc(Cl)cc2)c1	87	82	-5	.
Cc1nn(CC(=O)Nc2ccc(Cl)cc2Cl)c(=O)c2ccccc12	.	.	-5	106
CCc1ccc(Nc2nc(-c3cc4ccccc4oc3=O)cs2)cc1	96	74	.	123
Cc1ccc(NC(=O)CN2Cc3ccccc3C2=O)cc1	105	102	-13	105
O=C(O)CCCN1C(=O)C(O)=C(C(=O)/C=C/c2ccccc2)C1c1ccccc1 (stereo not drawn)	101	74	-36	94
CCOC(=O)c1oc2ccc(S(=O)(=O)n3nc(-c4cc(OCC)c(OCC)c(OCC)c4)cc3N)cc2c1C	105	91	-11	97
CCc1ccc(NC(=O)CSc2nnc(CC)c(CC)n2)cc1	85	83	.	95
O=C1CCSC2(C(=O)N(Cc3ccc(F)cc3)c3ccccc32)N1c1ccc(F)c(F)c1 (stereo not drawn)	83	96	.	111
O=C1OC(c2ccco2)=N/C1=C1/C=C(c2cccs2)Oc2ccccc21	82	90	-32	99
Cc1ccc(CN(C(=O)COc2ccccc2[N+](=O)[O-])c2ccccn2)o1	99	85	-23	102
O=C(NCCc1ccccc1)c1ccc(Cn2c(=O)c3cccn3c3cccnc32)cc1	115	92	.	103
CCc1ccc(C2C3=C(Nc4c2c(=O)n(C)c(=O)n4C)c2ccccc2C3=O)cc1 (stereo not drawn)	95	81	-155	102
CCN1CCN(C(c2ccc(F)cc2)c2c(O)cc(C)n(CCOC)c2=O)CC1 (stereo not drawn)	72	84	.	100
